Assay outcomes: PubChem, Center for Chemical Genomics, University of Michigan
CDC25B-CDK2 inh: primary biochemical HTRF screen for blockers of M-phase inducer phosphatase 2 binding to CDK2/cyclin A | z-score (no concentration beside the values) | P30305+P24941 | HTRF CDC25B-CDK2/CyclinA binding, anti-His/anti-Flag; active compounds read high | 94,000 compounds, 0.72% hits;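 also: score is relative to mean and SD of negative controls; strong numbers were not always called active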
TAR Tat displ: TAR RNA-Tat peptide displacers, HIV-1, primary screen, biochemical, FRET, FAM/TAMRA-labeled Tat | HIV-1 TAR RNA, Tat peptide displacement FRET; active compounds read high | z-score (test concentration not listed) | 100,000 compounds, 0.6% hits;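 also: score is relative to mean and SD of negative controls; some compounds called inactive have numbers as strong as hits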
Starred values were filed as active, the others as inactive; nt = not tested or not shown.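 The calls were made as follows: active = z-score from 3 up in half or more of its runs; inactive = the rest.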

SMILES	CDC25B-CDK2 inh	TAR Tat displ
C=CCOc1ccc(C2c3c(oc4ccccc4c3=O)C(=O)N2CCCN2CCOCC2)cc1OC (centres undefined)	-1.16	0.94
CCOC(=O)[C@@H]1Nc2ccc(C(=O)O)cc2[C@@H]2C=CC[C@H]12	14.6*	16.6*
COc1cc(OC)c(NC(=O)N2CCC(CN3CCCCC3)CC2)cc1Cl	nt	1.53
O=C(C1COc2cc(S(=O)(=O)N3CCCc4ccccc43)ccc2O1)N1CCCCC1 (centres undefined)	nt	1.29
Cc1nn2c(nc1=O)SCC2(O)c1ccccc1 (centres undefined)	-0.78	nt
Cn1c(C(=O)N2CCC(C(=O)NCCC3=CCCCC3)CC2)cc2sccc21	-0.85	1.22
CSCCC(NS(=O)(=O)c1ccc2c(c1)oc(=O)n2C)C(=O)N1CCCCC1 (centres undefined)	-0.28	-1.31
CCCCn1c(SCC(=O)N(CC)CC)nc2ccsc2c1=O	-2.39	nt
Cc1cc(OC(=O)c2sc3ccccc3c2Cl)c2cc(F)ccc2n1	-3.3	nt
Cc1[nH]c(C)c(S(=O)(=O)N2CCN(C3CCCCC3)CC2)c1C(=O)N1CCCC1	nt	-0.64
CC1CSc2ccc(S(=O)(=O)N(Cc3ccc(F)cc3)Cc3cccnc3)cc2NC1=O (centres undefined)	nt	1.99
C=CCSc1nn(CC(=O)OCC)c2nc3c(c(=O)n12)C(C)(C)Cc1ccccc1-3	0.92	0
CCC(O)c1nc2ccccc2n1CCCOc1ccccc1 (centres undefined)	-1.9	-0.7
CCCOc1ccc(N2C(=O)CC(NC3CCN(c4ccc([N+](=O)[O-])cn4)CC3)C2=O)cc1 (centres undefined)	nt	1.11
CC(=O)Oc1cc2c(C(=O)N3CCCC3)c(C)oc2c2ccccc12	3.9	0.43
Cc1cc(-n2cnc(SCCOc3ccccc3C)n2)nc(N)n1	-1.83	1.45
Cn1nc2c(c1C(=O)NC1CCCCC1)CCc1ccccc1-2	nt	1.69
CCc1nc(NC2CCCCC2)c(C#N)c2c1CCCC2	0.51	nt
COc1ccc(-c2nn3c(C(C)C)nnc3s2)cc1	-0.9	-1.35
Cc1ccc(C)c(S(=O)(=O)N2CCC(C)CC2)c1	-0.12	0.54
CCOC(=O)C1CCN(c2c(NCCCN3CCCC3)c(=O)c2=O)CC1	-0.16	0.94
COc1cccc(-c2noc(COc3ccc(Cl)cc3)n2)c1	-3.16	1.02
O=C(OC1=CN(Cc2ccccc2)S(=O)(=O)c2ccccc21)c1ccco1	-1.09	1.25
CC1(C)Cc2nc3oc4c(SCc5ccc(F)cc5)ncnc4c3cc2CO1	nt	0.58
Cc1ccccc1Oc1nc2ccccc2nc1SCC(=O)O	-1.99	0.81

(list continues)
SMILES	CDC25B-CDK2 inh	TAR Tat displ
CCCC(Nc1ncnc2ccccc12)C(=O)O (centres undefined)	-1.22	1.49
COC(=O)c1cc(-c2ccc(S(=O)(=O)Nc3ccc(OC)cc3)s2)on1	nt	0.05
CCn1nccc1C1CCCN1S(=O)(=O)c1ccc(Br)cc1 (centres undefined)	-1.9	0.24
CCOc1ccc(Nc2ncnc3c2cnn3-c2cccc(Cl)c2)cc1	nt	-0.07
CCOC(=O)NC(=S)N/N=C/c1ccccn1	0.19	nt
CCOc1ccc(S(=O)(=O)n2nc(C)c(S(=O)(=O)N3CCCC3)c2C)cc1	nt	-0.23
CC(C)CCSc1nnc2n(Cc3ccccc3)c(=O)c3c4c(sc3n12)CCCC4	-2.87	nt
Cc1sc2c(c1C)CSC(C(=O)Nc1ccc(C(C)C)cc1)=C2	nt	-5.17
CCCCCc1ccc(C(=O)CC2(O)C(=O)Nc3ccc(Br)cc32)cc1 (centres undefined)	-0.66	0.88
O=C(NCCc1ccco1)C1COc2ccccc2C1 (centres undefined)	nt	1.24
COc1ccc(S(=O)(=O)c2cnc3ccccc3c2N2CCCC2)cc1	0.15	0.76
COc1ccccc1N1C(=O)N(c2ccc(Br)cc2)C2CS(=O)(=O)CC21 (centres undefined)	-1.81	0.78
Cc1cc(C)cc(NC(=O)C2C3C=CC4(O3)C2C(=O)N(C2CC2)C4C(=O)NC2CCCCC2)c1 (centres undefined)	0.52	-0.83
Cc1cc(=O)nc2c3ccccc3n(C(C)C(=O)Nc3ccc(Br)cc3F)n12 (centres undefined)	0.6	1.38
C=CC(C1=CC(=O)C=CC1=O)c1ccccc1 (centres undefined)	nt	-1
O=C(Nc1nnc(-c2ccc3c(c2)OCO3)s1)c1ccc(Cl)cc1	-1.5	nt
Cc1c(C(=O)O)sc2ncnc(NCC3CCCO3)c12 (centres undefined)	nt	2.12
CCc1ccc(-c2cc(C)no2)cc1S(=O)(=O)Nc1ccc(F)cc1Cl	nt	1
O=C(C1=NN(c2ccccc2)C(=O)CC1)N1CCCCCC1	-0.22	nt
COc1ccc(C2/C(=C(/O)c3ccc(Cl)cc3)C(=O)C(=O)N2CC(C)C)cc1OC (centres undefined)	0.01	-0.19
O=C1CSC2(C(=O)Nc3ccccc32)N1c1ccc(F)cc1 (centres undefined)	-4.35	nt
C=CCNC(=O)CCCc1nnc2n(C)c(=O)c3sccc3n12	nt	-0.83
COc1cc(NC(c2nnc(-c3ccccc3)o2)c2ccc(F)cc2Cl)cc(OC)c1 (centres undefined)	nt	-0.6
Cc1[nH]c2ccccc2c1C(=O)/C=C/c1cccs1	-0.55	nt
O=c1c2ccccc2n2c(-c3ccccc3F)nnc2n1Cc1ccccc1	-0.71	1.58

2 of the compounds above, field by field.
O=c1c2ccccc2n2c(-c3ccccc3F)nnc2n1Cc1ccccc1
  CDC25B-CDK2 inh: -0.71
  TAR Tat displ: 1.58

Cc1cc(C)cc(NC(=O)C2C3C=CC4(O3)C2C(=O)N(C2CC2)C4C(=O)NC2CCCCC2)c1 (centres undefined)
  CDC25B-CDK2 inh: 0.52
  TAR Tat displ: -0.83

(further entries)
SMILES	CDC25B-CDK2 inh	TAR Tat displ
CCOC(=O)c1c(C)oc2cc(Br)c(O)cc12	-1.41	1.88
CCC1(C)Cc2ccccc2-c2[nH]c(=O)n(C3CCCCC3)c(=O)c21 (centres undefined)	-3.42	0.06
COc1ccc(OC)c(CCNc2ncnc3c2nc2n3CCCC2)c1	nt	0.28
CCCCC12CN3CC(C)(CN(C1)C3c1ccc(O)cc1)C2=O (centres undefined)	-1.49	0.18
COc1ccc(C2C3=C(CC(C)(C)CC3=O)Nc3[nH]c(=S)[nH]c(=O)c32)cc1OC (centres undefined)	-1.23	nt
Cc1ccccc1-c1nc(-c2ccc(Br)cc2)no1	-0.99	nt
COc1cccc(C2CC(=O)NC3=C2C(=O)CC(C)(C)C3)c1OC(C)C (centres undefined)	-0.5	-1.26
CO/N=C(/N)c1[nH]ncc1Br	-2.35	nt
COc1ccccc1Nc1nc2ccccc2n2c(C)nnc12	-1.75	-1.39
COc1cc(C(=O)Nc2nnc(C(C)C)s2)c(Br)c(OC)c1OC	-1.55	nt
COC(=O)c1cc(S(=O)(=O)N2CCN(C(=O)c3ccco3)CC2)cn1C	nt	0.34
CC1=C(c2ccc(C)c(C)c2)S(=O)(=O)NC1=NCc1cccnc1	0.32	0.33
COc1ccc(NS(=O)(=O)c2ccc(N3CCCCS3(=O)=O)cc2)cc1	nt	0.53
O=C(CSCc1nc2cccnc2n1C1CCCCC1)N1CCN(c2ccc(Cl)cc2)CC1	nt	-5.8
CCOC(=O)NC(NCc1ccccn1)(C(F)(F)F)C(F)(F)F	-0.31	nt
CN(Cc1ccccc1)S(=O)(=O)c1ccc(CCN2C(=O)c3cccnc3C2=O)cc1	nt	1.42
COc1ccc(OC)c(CNc2nc(N3CCN(CCO)CC3)nc3c2cnn3C)c1	nt	1.21
CCc1nnc(NC(=O)Cc2coc3cc(C)cc(C)c23)s1	0.14	1.04
CCOC(=O)CSc1nnc(-c2ccc(N(C)C)cc2)o1	-1.96	nt
O=C(Nc1ccc(Oc2ccccc2)cc1)c1cc2ccccc2c(=O)s1	-0.71	1.3
CN1C(=O)c2cccc3c(S(=O)(=O)NCCCCCC(=O)O)ccc1c23	-0.93	-0.22
COc1ccc(S(=O)(=O)NCCc2cn3ccsc3n2)cc1	nt	0.52
O=C(c1ccc2nc(N3CCCCC3)sc2c1)N1CCCCC1	-0.9	-0.71
O=S1(=O)N=CNc2ccc(S(=O)(=O)N3CCN(c4ncccn4)CC3)cc21	nt	-0.1
COC(=O)COc1ccc2oc(-c3ccc(OC)cc3)cc(=O)c2c1	0.61	2.25

Retrieved by compound from above:
SMILES	CDC25B-CDK2 inh	TAR Tat displ
Cc1ccccc1-c1nc(-c2ccc(Br)cc2)no1	-0.99	nt
CCCCC12CN3CC(C)(CN(C1)C3c1ccc(O)cc1)C2=O (centres undefined)	-1.49	0.18

No new results follow: an excerpt of the list.
SMILES	CDC25B-CDK2 inh	TAR Tat displ
COc1ccc(S(=O)(=O)NCCc2cn3ccsc3n2)cc1	nt	0.52
O=C(c1ccc2nc(N3CCCCC3)sc2c1)N1CCCCC1	-0.9	-0.71

(listing goes on)
SMILES	CDC25B-CDK2 inh	TAR Tat displ
CCOC(=O)c1nc(N)c(=O)n(-c2ccc(Cl)cc2)n1	-1.89	nt
CCCCSc1nn2c(=O)c(C)nnc2s1	-0.7	0.44
CN(C)c1nc(NC(C)(C)C)nc(Oc2ccc(=O)[nH]n2)n1	0.74	-0.46
CC(=O)N1CCC2(CC1)OC(=O)C(C)=C2C(=O)NCCCN1C(C)CCCC1C (centres undefined)	nt	0.79
N#Cc1c(=N)nc2oc3ccc(Cl)cc3c3c(C#N)c(N)[nH]c1c23	-0.84	nt
CC(=O)N1CCc2cc(Br)cc(S(=O)(=O)N3CCCC3c3cccs3)c21 (centres undefined)	-1.23	0.01
CC(=O)c1ccc(/C=C/C(=O)Nc2ccccc2)o1	-1.9	nt
Cc1ccc(-c2cc(Nc3c(C)n(C)n(-c4ccccc4)c3=O)nc(C)n2)cc1	-0.91	0.87
Cc1ccsc1CCNC(=O)C1CCC(CNc2c(N3CCOCC3)c(=O)c2=O)CC1 (centres undefined)	-1.11	1.25
CCN1CCN(C(=O)COCc2cc(-c3cccs3)on2)CC1	nt	0.07
Cn1c(=O)oc2cc(S(=O)(=O)N3CCC(C(=O)NC4CCCCCCC4)CC3)ccc21	0.31	nt
O=c1ccc2ccc(OCc3ccc(F)cc3)cc2o1	1.05	nt
CCN1CCN(C(=O)c2cnc3sc(N4CCC(C)CC4)nn3c2=O)CC1	nt	-0.7
CC1(C)CC(=O)C2=C(C1)Nc1ccccc1NC2c1ccccc1O (centres undefined)	-1.48	nt
Cc1cccc(-c2nc(SCc3cc(=O)n4[nH]cnc4n3)n[nH]2)c1	nt	1.58
Cc1ccc(Cl)cc1Nc1nc2ccccc2c2nncn12	-0.76	0.17
Cc1ccc(CNS(=O)(=O)c2ccc3c(c2)C(=O)NC3)cc1	nt	0.46
Cc1ccc(-c2ccc(=O)[nH]n2)cc1S(=O)(=O)NCc1ccc(OC(C)C)cc1	-0.85	0.34
COC(=O)c1c(C)nn(C)c1-c1snnc1C	-0.6	nt
Cc1cc(S(=O)(=O)N2CCC(c3nnc(-c4ccccc4C)o3)CC2)ccc1F	-1.85	1.6
COc1cc(NC(=O)CCC(=O)O)nc(OC)n1	1.81	0.56
Cc1cc(C)c(S(=O)(=O)N2CCN(Cc3ccc4c(c3)OCO4)CC2)c(C)c1	0.3	-5.38
CC(C)CC(=O)Oc1cccc(-n2cnnn2)c1	-1.56	-0.01
COc1ccc2cc1Oc1ccc(cc1)C[C@H]1c3cc(c(OC)cc3CCN1C)Oc1c(OC)c(OC)cc3c1[C@@H](C2)N(C)CC3	nt	0.12
COc1ccc(Cl)cc1S(=O)(=O)Nc1c(-n2cnnc2)nn(C)c1C	-2.57	0.34

Arranged by formula weight (low to high): some entries from above.
SMILES	CDC25B-CDK2 inh	TAR Tat displ
CC(C)CC(=O)Oc1cccc(-n2cnnn2)c1	-1.56	-0.01
COC(=O)c1c(C)nn(C)c1-c1snnc1C	-0.6	nt
Cc1ccc(Cl)cc1Nc1nc2ccccc2c2nncn12	-0.76	0.17
CC(=O)N1CCC2(CC1)OC(=O)C(C)=C2C(=O)NCCCN1C(C)CCCC1C (centres undefined)	nt	0.79

Going on with the list:
SMILES	CDC25B-CDK2 inh	TAR Tat displ
Cc1ccc(-c2onc(C)c2C)cc1S(=O)(=O)NC1CCCC1	nt	0.55
CCn1nc(-n2cnnc2)c(NC(=O)c2cccs2)c1C	2.46	0.59
COc1ccc(NC(=O)c2oc3ccccc3c2NC(=O)c2csnn2)cc1	-2.26	0.29
COc1ccc(NC(=O)N2CCN(S(=O)(=O)c3ccc4c(ccn4C)c3)CC2)c(OC)c1	nt	0.9
COc1ccc(/C=C2\SC(=S)N(CCC(=O)Nc3ccc(C)cc3)C2=O)cc1OC	-7.25	nt
Cc1oc2ccc(OC(C)C(=O)O)cc2c1C(=O)O (centres undefined)	0.02	3.22
CCOC(=O)c1noc2nc(C)nc(N3CCC(C(N)=O)CC3)c12	nt	0.37
O=C(CCCC1=NS(=O)(=O)c2ccccc2N1)N1CCN(c2cccc(Cl)c2)CC1	nt	-0.07
COC(=O)c1ccc(OC)c(CN2C(=O)N(c3cc(C)cc(C)c3)C3CS(=O)(=O)CC32)c1 (centres undefined)	-1.04	-0.49
COc1ccc2cc3c(N)nn(C(=O)c4ccncc4)c3nc2c1	-0.22	nt
Clc1ccccc1-c1nnc(COc2ccccc2)o1	0.18	0.96
O=S1(=O)N=C(Cc2ccccc2)Nc2ccc(S(=O)(=O)N3CCCCC3)cc21	nt	1.03
Cc1nn(CNC(=O)Nc2ccc(F)cc2F)c(C)c1Br	-1.99	nt
COCCCNC(=O)c1oc2c(c1C)-c1[nH]ncc1CC2	-2.84	-0.18
Cc1oc2ncn3nc(C(C)Oc4cccc5ccccc45)nc3c2c1C (centres undefined)	nt	1.19
